Screens: PubChem, ICCB-Longwood Screening Facility, Harvard Medical School
AID504770 – growth inhibitors of E. coli YBA685 in a screen for V. cholerae RctB (chromosome II replication) inhibitors; AID 504770; actives 0.27% (n = 130,000); z-score (concentration not given with the values); E. coli YBA685 rctB-dependent plasmid, OD600 growth, 3 h; hits give low values;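 active = z-score under -2 on both plates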;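 also: wells of about 30 µL received 100 nL stock; score is relative to mean and SD of the test wells; the first replicate is given; strong numbers were not always called active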
CapD inh – blocks the Bacillus anthracis CapD enzyme | actives 0.23% (n = 140,000) | purified CapD enzyme, fluorescence intensity read-out; hits give low values; some hits fall short of the stated cut | AID 492967 | z-score (no concentration beside the values);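 active = z-score under -4 in either of two replicates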;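 also: stock transfer was 100 nL into about 40 µL; score is relative to mean and spread of the plate; one replicate is shown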
Active calls of the source: *; nt = not tested or not shown. Rows were taken by chance; any-hit rate near 0.41%.

compound,AID504770,CapD inh
O=C(Cn1nc(-c2ccc3c(c2)OCCO3)ccc1=O)Nc1cccc2cccnc12,0.2,nt
O=C(O)c1cc(Sc2ccccc2)nc2ccccc12,-0.8,-1.39
CC(Sc1ncn[nH]1)C(=O)Nc1ccc(Cl)cc1 (centres undefined),-0.9,0.2
CNCCc1c[nH]c2ccccc12,-0.65,-0.205
COc1ccc(N2CCN(S(=O)(=O)c3ccc(F)c(C(=O)Nc4ccc(F)c(F)c4)c3)CC2)cc1,nt,0.37
Cc1cc(C)nc(OC(Cc2cnc3ccccc3n2)c2ccccc2)n1 (centres undefined),nt,-0.77
O=C(N/C=N/OCc1ccc(Cl)cc1)C1CCN(c2ncccn2)CC1,nt,5.49
Cc1cc2nc(/C=C/c3ccccc3)n(Cc3cccc(F)c3)c2cc1C,nt,49.6
c1ccc(CCn2nnnc2C(c2cccnc2)N2CCc3ccccc32)cc1 (centres undefined),-0.15,nt
CCOc1cc(/C=C2\NC(=S)NC2=O)ccc1OCc1ccc(Cl)cc1,nt,0.185

Filtered by structure, those above with an aryl thioether with sulfur outside any ring (2)
compound,AID504770,CapD inh
O=C(O)c1cc(Sc2ccccc2)nc2ccccc12,-0.8,-1.39
CC(Sc1ncn[nH]1)C(=O)Nc1ccc(Cl)cc1 (centres undefined),-0.9,0.2

Following part
compound,AID504770,CapD inh
COC(=O)c1cnc(N2CCCN(C(=O)c3cc(C(C)(C)C)nn3C)CC2)nc1C(F)(F)F,-0.55,3.86
CC(=O)NC(Nc1ccccc1)(C(F)(F)F)C(F)(F)F,-1.2,-0.61
O=c1/c(=C/c2cn(Cc3ccc(Cl)cc3Cl)c3ccccc23)sc2nc3ccccc3n12,nt,0.08
CC(CO)N1CCS(=O)(=O)CC1 (centres undefined),0.15,0.03
C=CCn1c(SCC(=O)c2ccc(Br)cc2)nc2cc(C(=O)N3CCOCC3)ccc2c1=O,nt,-0.025
CCc1ccc(N2CC(C(=O)NCc3ccc4c(c3)OCO4)CC2=O)cc1 (centres undefined),-0.8,nt
Cc1c(Cl)cccc1NC(=O)C1NC(=O)CC1c1ccccc1 (centres undefined),-0.3,58
O=C(Nc1c(C(=O)c2ccc(Br)cc2)oc2ccccc12)c1ccco1,-0.2,0.75
CCOC(=O)CSc1nc(C2CC2)cc(-c2ccc(OC)cc2)c1C#N,nt,6.31
NC(=O)c1cc(Br)cc2c1OCC2,-0.4,0.05
Nc1cccc(NC(=O)CCC(=O)O)c1,-0.5,-0.41
O=C(O)C1CCN(CCc2ccccn2)CC1,0.45,nt
O=C(OCn1nnc2ccccc2c1=O)C1=COCCO1,-1.4,nt
O=C1CC2(CCCC2)C(=O)N1CCNc1ncccc1C(F)(F)F,nt,1.61
O=S(=O)(c1cccc(F)c1)N1CCCN(c2ccc(C(F)(F)F)cn2)CC1,0,1.1
Cc1ccc(NC(=O)CSc2nc3n[nH]c(C)c3c(=N)n2-c2ccccc2C)cc1,-0.75,4.56
COC(=O)c1ccc(NC(=O)C2CC(=O)N(CCc3ccc(OC)c(OC)c3)C(=Nc3ccccc3)S2)cc1 (centres undefined),nt,-0.045
COc1ccc(C2=NN(S(=O)(=O)c3ccccc3)C(c3ccccc3Cl)C2)cc1OC (centres undefined),nt,0.035
O=C(Cn1nc2n(c1=O)-c1ccccc1SC2)N/N=C/c1ccncc1,-0.3,0.775
COc1ccc(OC)c(C2C3=C(CCCC3=O)OC3=C2C(=O)CCC3)c1,nt,-0.33
S=C(c1ccccc1)N1CCN(Cc2ccccc2)CC1,-0.4,-0.985
O=C(c1ccc(Cn2c(=O)[nH]c3ccsc3c2=O)cc1)N1CCN(c2ccccn2)CC1,0.75,0.005
O=C1OC(C(=O)Nc2ccccc2)Cc2ccccc21 (centres undefined),0.05,nt
COc1ccc(/C=C2\SC(=S)N(CCC(=O)N3CCN(C)CC3)C2=O)cc1,-0.25,0.395
Cc1cc(/C=C2\NC(=S)NC2=O)c(C)n1-c1ccc(I)cc1,nt,-0.405
N#CC1=C(SCC(=O)Nc2ccccc2)N=C(N)/C(=C2/NC(c3ccccc3)=CS2)C12CCCCC2,nt,-0.195
Cc1onc(-c2c(Cl)cccc2Cl)c1NC(=O)N(C)C1CCCCC1,0.2,0.29
CCC(C)NS(=O)(=O)c1ccccc1C(F)(F)F (centres undefined),0.1,nt
Nc1ccc(-c2nnc(Nc3ccccc3C(F)(F)F)s2)cc1,nt,96
CC1(c2ccccc2)NC(=O)N(NC(=O)CSc2nnc(-c3ccccc3)o2)C1=O (centres undefined),-1.5,nt
O=C(OCCCCN1C(=O)c2ccccc2C1=O)c1n[nH]c2ccccc12,0.55,nt
CC(=O)N(c1ccc(Cl)cc1)c1nc(C)cc(C)n1,nt,0.215
CC(=O)Nc1ccccc1NC(=O)CN(C)S(=O)(=O)c1ccccc1,-0.3,-0.055
S=c1[nH]ccn1Cc1ccccc1,-0.45,nt
O=C(c1ccc(Br)cc1)C1Oc2ccccc2C2CC(c3ccccc3)=NN12 (centres undefined),nt,-0.01
Cc1ccc2c(c1)C(c1ccccc1Br)CC(=O)N2 (centres undefined),nt,-0.22
O=C(CSc1ncn[nH]1)n1c2c(c3ccccc31)CCCC2,nt,-0.1
S=C(Nc1ccc2[nH]ccc2c1)NC1CCCCC1,0.65,1.04
COc1ccc(-c2cc(C(F)(F)F)[nH]n2)cc1OC,nt,0.13
Cc1cc(C)n(-c2nc(-c3ccccc3)c(Sc3ccc(Cl)cc3)s2)n1,nt,49.2
O=C(O)c1cn2ccccc2n1,1.85,nt
COc1ccccc1/C=C1\C(=O)N(c2ccc(C)cc2)C2=C1C(c1ccccc1)N(c1ccc(C)cc1)C2=O (centres undefined),nt,0.08
Cc1ccc(S(=O)(=O)n2ccc3c(OCc4nnc(C)o4)cccc32)cc1,nt,-0.11
O=S(=O)(NC1CCCCCC1)c1cccc2nsnc12,nt,-0.035
NC(=O)N1CCC(C(=O)O)CC1,1.95,nt
Cc1nc2ccccc2nc1SCC(=O)Nc1ccccc1,-0.65,0.17
Cn1c(=O)c2c(ncn2CC(=O)Nc2ccc(OCc3ccccc3)cc2)n(C)c1=O,nt,-0.065
O=C1/C(=C/c2ccc(-c3cc(Cl)ccc3Cl)o2)C=C(c2ccccc2)N1c1ccc2ccccc2c1,nt,-0.39
Cn1c2ccccc2c2nn(-c3ccccc3)c(=O)cc21,1.25,-0.485
O=c1[nH]c(-c2ccc(F)cc2)nc2ccccc12,-0.45,-0.215

Filtered by structure, the entries above containing a cyano group
compound,AID504770,CapD inh
CCOC(=O)CSc1nc(C2CC2)cc(-c2ccc(OC)cc2)c1C#N,nt,6.31
N#CC1=C(SCC(=O)Nc2ccccc2)N=C(N)/C(=C2/NC(c3ccccc3)=CS2)C12CCCCC2,nt,-0.195

The listing continues.
compound,AID504770,CapD inh
Cc1c(C(=O)Nc2ccc(S(N)(=O)=O)cc2)sc2nc3n(c(=O)c12)CCCC3,0,0.435
COc1cccc(NC(=O)CC2OCCN(Cc3ccccc3)C2=O)c1 (centres undefined),-0.2,-0.015
O=C(OCc1cccc(C(F)(F)F)c1)c1ccc[nH]c1=O,0.5,nt
O=C(CSc1ncnc2c1nnn2Cc1ccccc1F)NCc1ccco1,1.5,nt
CCc1ccccc1Nc1coc2ccc3c(C)cc(=O)oc3c12,nt,0.08
CCCc1ccc(C#N)c(SCC(=O)Nc2ccc(S(N)(=O)=O)cc2)n1,nt,-0.245
CCCOc1ccc(C(=O)Nc2ccc(C(=O)OCC)cc2)cc1,-0.4,-0.28
CN=c1scc(-c2ccc(Cl)cc2)n1C,0.1,nt
COc1ccc(C2C(C(=O)OCCOc3ccccc3)=C(C)NC3=C2C(=O)CC(c2cccs2)C3)cc1OC (centres undefined),nt,1.35
CC(=O)SC1CC(=O)N(c2ccc(Cl)cc2)C1=O (centres undefined),-0.3,-0.82
CN1CCN(Cc2c(C#N)c3ccccc3n2C)CC1,-0.9,0.055
O=C1C2=C(C(c3ccccc3)=NCCN2)C(c2ccccc2)N1c1ccccc1 (centres undefined),nt,-0.57
O=C1NC(=O)N(C2CCCCC2)C(=O)/C1=C/c1ccc(O)cc1,-0.65,-0.175
NNC(=O)[C@H]1[C@@H]2C[C@@H]3c4[nH]c5ccccc5c4CCN3C[C@H]2CC[C@H]1O,1.65,0.475
COc1ccc(-c2cc(-c3ccccc3)c(C#N)c(SC3CCCCC3=O)n2)cc1 (centres undefined),-0.15,-0.405
CCCCN(C)C(=O)Cn1ncc2c3ccccc3n(C)c2c1=O,-0.6,-0.06
Cc1ccc(-c2[nH]c(=O)n3ccncc23)s1,1.25,nt
CC(C)(C)c1cc2ncnc(N3CCOCC3)c2s1,nt,-0.25
CC(C)Oc1ccc(-c2cn3nc(C4CC4)sc3n2)cc1,-0.6,-0.335
Cc1cccc(CC(C(=O)Nc2ccccc2)c2nn[nH]n2)c1 (centres undefined),2,nt
Cc1ccc(CNC(=O)c2nnc(Cc3ccc(F)cc3)o2)cc1,0.75,-0.015
CN(Cc1ccccc1)Cc1nc2ccccc2n1C,0.1,nt
Cc1ccc2c(c1)c1c(n2CCC(=O)O)C(=O)CCC1,-1.3,-2.5
Cn1c(C(=O)NCCCN2CCCC2=O)cc2sccc21,-0.35,1.09
S=c1oc(-c2ccncc2)nn1CCc1ccncc1,-0.15,0.245
Oc1ccc(CN2CCCCC2)c2cccnc12,-0.55,-1.93
O=C1CCC(=O)N1CN(Cc1ccccc1)Cc1ccccc1,-0.25,nt
COc1ccc(-c2nc(-c3cc(OC)c(OC)c(OC)c3)[nH]c2-c2ccc(OC)cc2)cc1,nt,42.1
O=C(NN1CCCCC1)C12CC3CC(CC(O)(C3)C1)C2,-2.2,nt
COc1cc(CNc2ccc(C(=O)O)cc2)ccc1OCc1ccc(Cl)cc1,2.3,-0.26
O=C(Nc1c[nH]c(=O)[nH]c1=O)NC1CCCC1,-0.6,-0.12
Cc1ccc(S(=O)(=O)NC(=O)c2cc(C)n(CCN(C(C)C)C(C)C)c2C)cc1,0,nt
Cc1ccc(NC(=O)c2cc3c(=O)oc4ccccc4c3n2C)cc1F,-0.85,0.055
Cc1ccc(N(C)S(=O)(=O)c2ccc3[nH]cc(C(=O)N4CCc5ccccc5C4)c(=O)c3c2)cc1C,nt,1.08
COc1ccc(-c2cc(C(F)(F)F)n3nc(C(=O)Nc4cccnc4Cl)cc3n2)cc1,nt,1.77
COc1cccc(N2CCN(c3ncnc4c3cnn4-c3ccc(Cl)cc3)CC2)c1,nt,0.675
O=C(CSc1nnc(-c2cccs2)o1)N1c2ccccc2CCc2ccccc21,-0.05,nt
O=C(C1CCC(Cn2c(=S)[nH]c3ccccc3c2=O)CC1)N1CCCC1 (centres undefined),0.8,-0.43
Cc1ccc(S(=O)(=O)N(CCC#N)CC2CCCO2)cc1 (centres undefined),-0.5,-0.07
Cc1c(C(=O)NC(C)C)oc2c1-c1[nH]ncc1CC2,0.2,5.68
CC(=O)Nc1ccc(NC2SC(=O)N(c3ccccc3)C2=O)cc1 (centres undefined),-1.05,-0.31
COc1ccc(-n2c(C)cc(C(=O)COC(=O)c3ccc(C#N)cc3)c2C)cc1,-1.3,nt
N#CC(C#N)=Cc1ccc(-c2ccc(S(N)(=O)=O)cc2)o1,-0.85,nt
O=C(OCc1ccc([N+](=O)[O-])cc1)C1CCCN1C(=O)OCCc1cccs1 (centres undefined),nt,-0.285
C=CCc1cccc2ccc(=O)oc12,0.3,-1.33
CC(=O)NCCOc1ccc(C)cc1,0.75,1.02
Cc1ccc(-c2csc(CO)n2)cc1,-1.55,-0.565
COC(=O)c1cc(C(=O)C2CCCCC2)c[nH]1,1.15,-0.13
CCOC(=O)C1=NN(C(=O)Cc2ccccc2)C(O)(c2ccc(Cl)cc2)C1 (centres undefined),nt,-0.97
Nc1nnc(CC(=O)N2CCCC2)o1,-0.05,-0.13

(list continues)
compound,AID504770,CapD inh
CSc1sc(-c2ccnc(SCC(=O)c3ccc(Cl)cc3)n2)c2c1C(=O)CCC2,-1.2,3.73
CCn1c(=NC(=O)c2ccccc2OC)sc2cc(Br)ccc21,-0.25,3.92
Cc1cc(-c2ccccc2)nc2cc(C(=O)O)nn12,1.35,-0.55
CN(C)/N=C/c1cn(C)c2ccccc12,0.25,nt
O=C(O)CNC(=O)c1ccccc1OC(F)F,-0.15,nt
C=C(C)Cn1c(-c2cccs2)nc2ccccc21,-1.5,35.1
CCOCc1c(C(=O)OCC(=O)c2ccccc2)oc2ccccc12,-0.5,nt
C=CC(=O)NCC1OCCc2ccccc21 (centres undefined),1.7,nt
Cc1ccc(S(=O)(=O)NC(=O)c2c(C)cc3ccccn23)cc1,-0.6,92.2
Cc1cccc(-c2cc(C(=O)Nc3ccc(C(N)=O)cc3)c3ccccc3n2)c1,nt,-0.045
O=P(c1ccccc1)(c1ccccc1)c1nc(-c2ccccc2Cl)oc1N1CCOCC1,nt,71.4
